Bioassay records: PubChem BioAssay, several laboratories
E coli growth – inhibitors of Escherichia coli growth; OD600, 23 h; stronger effect = lower value; OD600 absorbance (no concentration beside the values); actives 0.21% (n = 330,000); AID 1053175;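 active = OD600 absorbance below the run mean of sample wells minus 3.6 SD, in any replicate, cut at about 0.56 in these data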;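 also: stock transfer was 300 nL into about 60 µL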
FGF22 binding – shifts melting point of recombinant human FGF22 | Q9HCT0 | recombinant FGF22 thermal shift, SYPRO orange fluorescence; percent of sucrose octasulfate shift, DMSO zero | calls only at 9.99 µM | actives 1.5% (n = 340,000);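 active = melting point raised past a set limit in the mean and every replicate; three in four hits are not shown here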
Target sequence (Q9HCT0 whole entry, looked up): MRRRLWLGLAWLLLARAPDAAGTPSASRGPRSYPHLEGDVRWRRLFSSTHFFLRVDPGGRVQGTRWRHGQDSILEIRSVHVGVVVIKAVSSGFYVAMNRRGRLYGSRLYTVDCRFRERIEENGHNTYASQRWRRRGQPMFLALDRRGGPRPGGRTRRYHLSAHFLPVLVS
ALR H2O2 inh – human ALR oxidase inhibition via reduced H2O2. AID 485317. actives 3.8% (n = 290,000). inhibition, % (no concentration beside the values). purified ALR, DTT oxidation, H2O2 HRP-luminol luminescence. P55789;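 active = mean and each replicate at 75% or more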;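 also: stock transfer was 7.5 nL into about 7.5 µL; 0% = neutral wells and 100% = wells with inactivated enzyme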
B2AR ag – activates human beta-2 adrenergic receptor causing internalization; response, % (no concentration beside the values); P07550; Am2.2-beta2AR cells, FAP receptor internalization, flow cytometry; reference of the scale not given here; AID 504454; actives 0.43% (n = 340,000);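 active = response above a set limit, near 3 SD of response in nonfluorescent compounds, cut at about 42% in these data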;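 also: stock transfer was 100 nL into about 11 µL; a reference agonist was the positive control; negative values mostly stem from fluorescent compounds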
HNF4A DNA FP – change in binding of human HNF4 alpha to DNA; P41235; actives 0.3% (n = 360,000); activity change, % at 10 µM; AID 1224865; HNF4a-FITC DNA binding, fluorescence polarization, 1 h; in the data active = activity change above about 30%, passing the limit was not always enough;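 also: controls were the assay level and a saturating level of protein; the project sought stronger binding though the title names inhibitors; some compounds called inactive have numbers as strong as hits; positive values seem to mean higher polarization but the record does not say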
Target sequence (P41235 whole entry, looked up): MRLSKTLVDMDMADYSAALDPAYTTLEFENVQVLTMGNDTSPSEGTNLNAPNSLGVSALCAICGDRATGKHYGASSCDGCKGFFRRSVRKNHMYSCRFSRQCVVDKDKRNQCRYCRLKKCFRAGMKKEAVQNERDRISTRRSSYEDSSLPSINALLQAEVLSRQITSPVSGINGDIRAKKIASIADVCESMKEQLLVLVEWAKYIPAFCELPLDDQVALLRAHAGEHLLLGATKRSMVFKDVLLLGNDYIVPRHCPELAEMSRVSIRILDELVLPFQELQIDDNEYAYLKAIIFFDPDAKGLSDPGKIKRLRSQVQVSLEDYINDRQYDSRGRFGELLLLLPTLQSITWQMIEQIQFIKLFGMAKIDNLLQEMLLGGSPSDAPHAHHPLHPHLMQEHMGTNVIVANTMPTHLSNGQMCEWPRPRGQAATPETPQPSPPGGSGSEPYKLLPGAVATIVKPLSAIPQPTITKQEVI
UCH37 DUB inh – human UCH37 deubiquitinating enzyme inhibition; Q9Y5K5; purified proteasome/UCH37, Ub-AMC cleavage fluorescence; inhibition, % (no concentration beside the values); actives 0.33% (n = 330,000);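 active = mean of two replicates above 20%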;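 also: 0% = compound-free wells with enzyme and 100% = wells lacking proteasome; stock transfer was 100 nL into about 20 µL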
Target sequence (Q9Y5K5 whole entry, looked up): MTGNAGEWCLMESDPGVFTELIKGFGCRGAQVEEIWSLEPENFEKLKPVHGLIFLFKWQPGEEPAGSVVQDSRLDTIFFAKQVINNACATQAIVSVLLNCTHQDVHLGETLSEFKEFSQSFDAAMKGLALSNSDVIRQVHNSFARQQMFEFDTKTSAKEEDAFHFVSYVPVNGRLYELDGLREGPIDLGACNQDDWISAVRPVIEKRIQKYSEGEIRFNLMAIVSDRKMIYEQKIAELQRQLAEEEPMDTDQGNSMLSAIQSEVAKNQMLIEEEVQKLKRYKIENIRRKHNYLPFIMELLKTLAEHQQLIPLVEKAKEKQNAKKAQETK
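Material: human UCH37 enzyme supplied as purified proteasome complex. Measure: % inhibition of Ub-AMC cleavage fluorescence. Medium: pH 7.4 Tris-HCl (50 mM) with ovalbumin, ATP-MgCl2, DTT. Times: 30 min preincubation with enzyme, 25 min cleavage at room temperature. Detection: AMC fluorescence intensity at 355/460 nm.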
Ecoli rRNA inh – inhibitors of bacterial rRNA selective over humanized ribosomes | actives 1.6% (n = 350,000) | GFP signal change (wild-type ribosome), % (test concentration not listed) | E. coli WT GFP vs humanized-ribosome RFP mutants, fluorescence, 24 h; stronger effect = lower value; DMSO median 0, no signal -100 | AID 720706;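 active = significant combined selectivity score with lowered wild-type GFP, culture density cut under 30%, mutant RFP and density less affected; inactive = any of these conditions unmet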; also: one replicate is shown; some compounds called inactive have numbers as strong as hits
Ecoli rRNA inh OD600 – also measured in Ecoli rRNA inh; calls as there; OD600 change, %; measured here: OD600 growth;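 optical density of the mix in the first replicate; 0 = DMSO median and -100 = no signal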
Ecoli rRNA inh RFP – further read-out of Ecoli rRNA inh, marked with its call; RFP signal change, %; measured here: RFP humanized mutant strains;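 first replicate; 0 = DMSO median and -100 = no signal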
* hit, by the source's call; i = inactive; x = no result given. Some of the compounds tested (hit frequency here may not be typical).

mol,E coli growth,FGF22 binding,ALR H2O2 inh,B2AR ag,HNF4A DNA FP,UCH37 DUB inh,Ecoli rRNA inh,Ecoli rRNA inh OD600,Ecoli rRNA inh RFP
COc1ccc(S(=O)(=O)N2CCOC2CNC(=O)C(=O)NCCN2CCOCC2)cc1OC (stereo not drawn),0.69,i,1,-2,-2.4,0.3,6,22,1.1
COC(=O)c1ccc(C23CC4(C2)[C@H](CN(CC2CCCCC2)[C@@H]4c2ccccc2)C3c2ccc(C(F)(F)F)cc2)cc1 (stereo partly drawn),x,i,0,x,x,4.0,5,5,0.7
CC[N+](CC)(CCO)CCCN1C(=O)C2CC=C(Cl)CC2C1=O (stereo not drawn),0.74,x,8,0,x,-0.5,x,x,x
Cc1c(C)[n+](=O)c(-c2ccc(Br)cc2)c(C)n1[O-],0.65,i,-6,-2,-4.2,1.5,x,x,x
Cc1csc(CCc2nc(C)cs2)n1,0.75,x,-8,1,-1.0,-3.3,x,x,x
O=C(NCCc1ccccc1F)[C@@H]1CSC2c3ccccc3C(=O)N21 (stereo partly drawn),0.7,x,0,-6,2.3,2.4,x,x,x
O=C(NCc1ccccn1)C1CCN(Cc2cnn(-c3ccccc3)c2-n2cccc2)CC1,0.69,x,-11,3,-1.6,1.8,x,x,x
CCOc1cc(/C=N/NC(=O)C(=O)Nc2cc(Cl)ccc2C)ccc1O,x,i,-2,0,4.4,x,12,9,2.6
COc1ccc(Cl)cc1NC(=O)CN(C)C(=O)c1cc(-c2ccncc2)nc2ccccc12,0.68,i,1,25,11,5.5,-7,-23,8.4
CC(C)=C1SC(N2CCN(c3cccc(C(F)(F)F)c3)CC2)=NC1=O,0.7,x,-6,-1,0.9,2.9,x,x,x
COCCNC(C(=O)Nc1ccc([N+](=O)[O-])cc1Br)c1ccccc1 (stereo not drawn),0.69,x,-24,-3,0.3,2.7,x,x,x
Nc1nc(COc2ccc(F)cc2Cl)nc(N2CCCCC2)n1,0.69,i,1,-9,2.8,3.1,-24,-20,4.2
CCOC(=O)Cc1csc(NC(=O)CN2CCN(c3ccccc3)CC2)n1,0.65,i,x,5,-1.6,3.8,-1,-4,0.7
CC(=O)Oc1ccc(N(C(C)=O)S(=O)(=O)c2cccs2)c2ccccc12,0.71,x,-83,4,4.4,-1.9,x,x,x
Cc1cccc(C)c1NC(=O)N1CCC(n2cnc3ccccc32)CC1,0.71,x,-6,3,-1.1,0.5,x,x,x
CCC(Sc1nc(N)cc(=O)[nH]1)C(=O)NC(C(=O)OC)c1ccccc1 (stereo not drawn),0.68,x,6,x,x,32*,x,x,x
CCOC(=O)c1[nH]c2ccc(OC)cc2c1NC(=S)N1CCN(c2ccc(F)cc2)CC1,0.73,x,-4,3,1.9,-2.3,x,x,x
CCOc1ccc2c(c1)C(c1ccc(C)cc1)=NNC(c1ccc(C)cc1)=N2,0.78,x,0,7,0.5,-3.9,x,x,x
COc1ccc(CCNC(=O)CS(=O)(=O)c2cn(CC(=O)N3CCCC3)c3ccccc23)cc1OC,0.7,i,-14,-13,6.2,1.2,5,11,13
Cc1ccnc(SCC(=O)n2c3c(c4ccccc42)CC(C)CC3)n1 (stereo not drawn),0.69,x,-8,-3,0.2,-0.3,x,x,x

Profiles as entered above:
COCCNC(C(=O)Nc1ccc([N+](=O)[O-])cc1Br)c1ccccc1 (stereo not drawn) in the list: E coli growth = 0.69; FGF22 binding = x; ALR H2O2 inh = -24; B2AR ag = -3; HNF4A DNA FP = 0.3; UCH37 DUB inh = 2.7; Ecoli rRNA inh = x; Ecoli rRNA inh OD600 = x; Ecoli rRNA inh RFP = x
CCOC(=O)Cc1csc(NC(=O)CN2CCN(c3ccccc3)CC2)n1 in the list: E coli growth = 0.65; FGF22 binding = i; ALR H2O2 inh = x; B2AR ag = 5; HNF4A DNA FP = -1.6; UCH37 DUB inh = 3.8; Ecoli rRNA inh = -1; Ecoli rRNA inh OD600 = -4; Ecoli rRNA inh RFP = 0.7

Further structures:
mol,E coli growth,FGF22 binding,ALR H2O2 inh,B2AR ag,HNF4A DNA FP,UCH37 DUB inh,Ecoli rRNA inh,Ecoli rRNA inh OD600,Ecoli rRNA inh RFP
CCOC(=O)C1CCN(S(=O)(=O)c2cccc3nonc23)CC1,0.73,x,-3,5,-0.2,1.3,x,x,x
CC1(C)CC(=O)C(C=NCCN2CCN(C(=S)Nc3ccc(F)cc3)CC2)=C(O)C1,0.73,x,-5,-8,2.1,6.3,x,x,x
c1ccc(N2CCN(Cc3nc4ccccc4[nH]3)CC2)nc1,0.66,i,-3,2,2.8,0.0,5,9,-0.9
CC(Sc1nnnn1C)C(=O)Nc1ncc(Cl)cc1Cl (stereo not drawn),0.67,i,x,-3,-4.2,0.6,x,x,x
CCCn1nc(NC(=O)CC(C)C)c2cc3cccc(C)c3nc21,x,i,1,8,1.1,x,0,10,-1.7
COc1ccc(Cl)cc1NC(=O)CN(C)C(=O)Cn1cnc2c1c(=O)n(C)c(=O)n2C,0.61,i,-15,-6,4.7,1.2,6,1,0.7
OC(c1ccc(Cl)cc1)c1ncc(-c2ccccc2Cl)[nH]1 (stereo not drawn),x,i,x,x,-0.2,x,-17,-46,22
CC(=O)N1CCN(CC(=O)Nc2cc(S(=O)(=O)N3CCCCC3)ccc2C)CC1,0.69,i,-1,5,-0.7,-2.0,2,9,0.9
Cc1sc(NC(=O)CSc2nnnn2C)c(C#N)c1C,0.64,i,20,-1,1.0,3.2,13,3,6.8
CC(=O)Nc1cccc(OCC(O)Cn2cnc3ccccc32)c1 (stereo not drawn),0.66,x,100*,-3,-2.9,3.8,x,x,x
COc1ccc(/C=C2\C(=O)N(c3c(Cl)cc(Cl)cc3Cl)N=C2NC(=O)c2cccc([N+](=O)[O-])c2)cc1,0.71,x,2,31,-0.9,5.9,x,x,x
COc1ccc(CCN2C(=O)C(Oc3ccccc3C)C2c2ccc3c(c2)OCO3)cc1OC (stereo not drawn),0.7,x,-70,4,0.6,6.7,x,x,x
CCc1nn(C(CC)C(=O)NCc2cccs2)c(=O)c2cc3occc3n12 (stereo not drawn),0.65,i,0,1,1.8,2.4,6,-9,-3.1
Cc1cc(C)c(S(=O)(=O)N2CCOC2CNC(=O)C(=O)NCc2ccncc2)c(C)c1 (stereo not drawn),0.7,i,-4,-2,-2.6,5.2,0,0,-1.5
Cc1ccc(NC(=O)c2ccc(CNc3c(N4CCOCC4)c(=O)c3=O)cc2)cc1,0.72,i,x,-4,0.3,8.9,1,9,-2.0
CCN(CC)C(=O)C1=C(C)N(Cc2ccc(F)cc2)C(=O)C(CC(=O)NCCCN(C)C)C1 (stereo not drawn),x,i,x,x,1.4,x,20,16,1.6
CCOC(=O)C1CCCN(C(=O)c2ccc(CNc3c(N4CCC(C)CC4)c(=O)c3=O)cc2)C1 (stereo not drawn),0.72,i,-5,-6,0.8,6.8,0,-4,2.7
COc1cc(N)c2ncccc2c1Br,0.59,i,x,4,5.3,0.6,-11,-2,8.9
CN1CCN(c2nc(-c3ccccc3)ncc2S(C)(=O)=O)CC1,0.69,i,4,-2,-2.5,2.7,6,2,-3.5
COc1ccc(CCNC(=O)c2cc(-c3cccs3)on2)cc1OC,0.75,i,-10,-2,1.0,-0.6,2,-5,-8.0
O=C(COC(=O)c1ccccc1F)Nc1cccnc1Cl,0.66,i,0,-8,0.3,2.5,12,3,1.8
COc1cccc(NC(=O)C2(C)CCN2C(=O)CC2CC2)c1 (stereo not drawn),x,i,x,x,-2.4,x,12,19,1.9
CCn1c(C)nc2cc(S(=O)(=O)C(F)F)ccc21,0.71,x,-12,3,0.7,2.0,x,x,x
COC(=O)c1ccccc1OCCCN(C)C,0.69,i,-9,-6,3.0,-1.5,9,5,1.5
CCc1ccc(NC(=O)c2noc3c2CCc2ccccc2-3)cc1,0.67,x,x,9,0.7,4.6,x,x,x
O=C(Cn1cnc2ccccc21)N/N=C/c1ccccc1[N+](=O)[O-],x,x,2,1,0.1,x,x,x,x
O=C(CNC(=O)c1ccccc1F)NC1CCN(Cc2ccccc2)CC1,0.66,i,-18,23,3.2,0.2,5,14,-1.8
Cc1ccc(S(=O)(=O)N(C)C)cc1NS(=O)(=O)c1ccc(Cl)s1,0.72,i,6,6,0.0,2.6,-45*,-21*,-8.3*
CCc1ccc(CN2CCC(n3nccc3NC(=O)c3ccccc3)CC2)o1,0.69,i,2,-3,-1.3,3.1,4,-4,1.5
Cc1ccccc1-c1nnc(SCc2ccccc2F)o1,0.71,x,-7,-4,-0.2,2.2,x,x,x
CCN(CC)CCn1c(=S)[nH]c2cc(C(=O)NCc3ccc(C)cc3)ccc2c1=O,0.65,i,5,3,2.2,-5.9,3,9,3.0
Cc1cc(C(=O)N2CCCC(C(=O)c3cccc4ccccc34)C2)nc(C)n1 (stereo not drawn),0.67,i,x,-5,-2.6,4.7,3,-3,0.2
Cc1ccc(SCC(=O)OCC(=O)NC2CCCCCCC2)cc1,0.66,i,-3,0,4.4,3.8,0,7,-2.0
O=C(N/N=C/c1ccoc1)c1ccc(Cl)cc1,x,i,-8,-2,1.1,x,15,21,3.5
CC(C)OP(=O)(OC(C)C)C(Nc1ccccn1)c1ccc(F)cc1 (stereo not drawn),0.7,x,1,10,-0.7,0.7,x,x,x
CCOC(=O)C1=C(COC(=O)/C=C/c2ccc(C)o2)NC(=O)NC1C (stereo not drawn),0.71,i,3,10,17,10,17,7,7.4
Cc1ccc(OCc2nc(-c3ccc(Cl)cc3)n[nH]2)cc1,0.67,x,0,-1,-2.8,1.9,x,x,x
CCCN1CCC(CCOc2ccccc2)(C(=O)OCC)CC1,0.67,i,x,-1,-3.1,-1.3,10,7,-0.7
COc1ccc(Cn2nnnc2C(C(C)C)N2CCN(c3ccccc3OC)CC2)cc1 (stereo not drawn),0.74,x,x,6,5.1,4.8,x,x,x
CCCS(=O)(=O)c1nc(S(=O)(=O)c2ccc(C)cc2)c(N2CCN(C)CC2)s1,0.68,i,-2,-3,1.6,2.7,10,15,5.6
O=C(CCS(=O)(=O)c1ccc(Br)cc1)N1CCN(Cc2ccccc2)CC1,0.67,x,30,-4,-2.3,3.7,x,x,x
O=C(NCC1CCN(Cc2ccccc2F)CC1)Nc1cc(F)ccc1F,0.68,i,-9,0,0.6,-1.3,2,7,1.9
O=C1NC[C@H](CC2CCCCC2)N(CCc2cccc(F)c2)C1=O,x,i,0,-7,3.6,4.8,-26,-29,-7.9
CC(=O)c1ccc(N2CCN(c3ccccc3O)CC2)c([N+](=O)[O-])c1,0.64,i,99*,-2,-1.8,5.1,-10,-15,-5.7
CC(=O)C1=CCC(c2ccccc2)N(Cc2ccccc2)C1 (stereo not drawn),x,i,x,x,-3.7,x,-4,-10,-0.8
O=c1c2ccccc2nc2n1CCS2(=O)=O,x,i,9,2,1.1,x,12,5,-0.2
CCC(=O)Nc1nnc(S(=O)(=O)N2CCCc3ccccc32)s1,0.72,i,x,-10,0.9,5.1,-3,-4,0.4
Cc1ccc(-c2n[nH]c(=O)c3ccccc23)cc1S(=O)(=O)Nc1ccc(F)cc1,0.68,i,-8,1,-2.5,2.1,-7,-15,-1.2
